Assay outcomes from PubChem BioAssay.
Vaccinia mCherry – inhibitors of vaccinia virus infection (mCherry reporter signal); Vaccinia virus mCherry reporter infection, fluorescence; about a quarter of the inactives have no number; Potency, µM (series often up to 36.5 µM), for inactives: at the highest dose activity change, negative = inhibition, actives largely listed as inhibitors; 0.63% of 310,000 active; active = well fitted inhibition curve with a large enough effect; inconclusive = small, poorly fitted or top-dose-only effect; inactive = no such curve, though single readings can be large or run the other way; tested in A549 cells; note: nearly all actives have a fitted effect of over 35% in size; inactives centre near -10
VACV Venus inh – vaccinia inhibition (Venus reporter). Potency, µM (series often up to 36.5 µM), for the others: at the highest dose activity change, negative = inhibition, most hits filed as inhibitors. 0.46% of 330,000 active. Vaccinia virus Venus reporter expression, fluorescence. AID 720580; active means well fitted inhibition curve with a large enough effect; inconclusive means small, poorly fitted or top-dose-only effect; inactive means no such curve, though single readings can be large or run the other way; tested in A549 cells; note: nearly all actives have a fitted effect of over 30% in size; inactives centre near -10
Active calls of the source: *; i = inactive; ? = inconclusive; . = no result given; & = joins results of further samples; [ ] = remark or other dose. % is set by controls: 0 for no effect and ±100 for the full control effect; potency is the fitted concentration of half-maximal effect.

SMILES	Vaccinia mCherry	VACV Venus inh
O=C(NC1CC(=O)N(c2cccc(F)c2)C1)C(=O)c1c[nH]c2ccccc12 (stereo not given)	-10%	-21%
O=C(NNC(=O)C1CCN(S(=O)(=O)c2ccc(Cl)cc2)CC1)c1ccncc1	i	-9%
CC(C)CCn1c(CN2CC(C)OC(C)C2)nc2c1c(=O)n(C)c(=O)n2C (stereo not given)	i	0%
CCn1c(COc2ccc(Cl)cc2)nnc1SC1CCc2ccccc2C1=O (stereo not given)	i	-11%
O=c1c2ccccc2nc(-c2ccco2)n1/N=C/c1ccccc1O	.	?
CN(C)c1ccc(NC(=O)C(=O)NCCOc2ccccc2)cc1	-6%	-3%
CCCCOc1ccc(C(O)C(CN2CCOCC2)c2ccccc2)cc1 (stereo not given)	-1%[7.34 µM]	0%[7.34 µM]
COC(=O)CC1=NN(c2ccccc2)C(=O)/C1=C\c1ccc(OC)cc1	-7%	-18%
CCc1ccc([C@@H]2C[C@H]3[C@@H](CN2S(=O)(=O)c2ccc(C)cc2)C(=O)C[C@@H](c2ccc(Cl)cc2)N3S(=O)(=O)c2ccc(C)cc2)cc1	19%	-6%
Cc1ccc(C(=O)Nc2nc3ccc(S(C)(=O)=O)cc3s2)cc1C	-7%	-15%
COc1ccc(CN2C(=O)c3ccccc3C2c2nnnn2-c2ccc3c(c2)OCCO3)cc1OC (stereo not given)	-10%	-4%
O=C(Nc1ccc2c(c1)OCO2)c1cc(C2CCCCN2C(=O)CCCc2ccccc2)on1 (stereo not given)	i	-14%
C=CCOc1ccc(C[C@H](N)C(=O)NC[C@H]2O[C@@H](n3cnc4c(N)ncnc43)[C@H](O)[C@@H]2O)cc1	i	-4%
CCCn1nnnc1SCC(=O)Nc1ccc(F)cc1	-8%	-3%
O=S(=O)(c1cccc(Cl)c1)N1CCN(c2nc(-c3cccs3)nc3ccccc23)CC1	-15%&-4%	-9%&-13%
COc1cc(C(=O)N2CCCCC2c2cc(C(=O)Nc3ccccc3Cl)no2)cc(OC)c1C (stereo not given)	i	-13%
O=C(CS(=O)(=O)c1cccc2nsnc12)N1CCN(c2ccc(F)cc2)CC1	-20%	-14%
C/C(=N\NC1=N[C@H]2CS(=O)(=O)C[C@H]2S1)c1ccccc1	-2%[7.34 µM]	0%[7.34 µM]
CCN1CCN(C(=O)Nc2cc(Cl)ccc2OC)CC1	i	-2%
Cc1ccc(S(=O)(=O)N2C(=O)CCC2C(=O)O/N=C(\N)c2ccccc2)cc1 (stereo not given)	-13%	-10%
CN(C)c1cccc(C(=O)OC(C(=O)Nc2ccc(Cl)cc2C(F)(F)F)c2ccccc2)c1 (stereo not given)	-4%	-19%
Cc1ccc(C)c(Cn2c(=O)n(CCC(=O)NCc3ccco3)c(=O)c3ccccc32)c1	.	3%
O=C(c1ccc(Cl)c(Cl)c1)N1CCOCC1	.	-14%
O=C(CSc1ccc(Cl)cc1)Nc1ncccn1	i	-14%

Ordered by count of non-hydrogen atoms (largest number first): part of the list above
SMILES	Vaccinia mCherry	VACV Venus inh
CCc1ccc([C@@H]2C[C@H]3[C@@H](CN2S(=O)(=O)c2ccc(C)cc2)C(=O)C[C@@H](c2ccc(Cl)cc2)N3S(=O)(=O)c2ccc(C)cc2)cc1	19%	-6%
COc1ccc(CN2C(=O)c3ccccc3C2c2nnnn2-c2ccc3c(c2)OCCO3)cc1OC (stereo not given)	-10%	-4%
COc1cc(C(=O)N2CCCCC2c2cc(C(=O)Nc3ccccc3Cl)no2)cc(OC)c1C (stereo not given)	i	-13%
CN(C)c1cccc(C(=O)OC(C(=O)Nc2ccc(Cl)cc2C(F)(F)F)c2ccccc2)c1 (stereo not given)	-4%	-19%
Cc1ccc(C)c(Cn2c(=O)n(CCC(=O)NCc3ccco3)c(=O)c3ccccc32)c1	.	3%
O=S(=O)(c1cccc(Cl)c1)N1CCN(c2nc(-c3cccs3)nc3ccccc23)CC1	-15%&-4%	-9%&-13%
Cc1ccc(S(=O)(=O)N2C(=O)CCC2C(=O)O/N=C(\N)c2ccccc2)cc1 (stereo not given)	-13%	-10%
CCCCOc1ccc(C(O)C(CN2CCOCC2)c2ccccc2)cc1 (stereo not given)	-1%[7.34 µM]	0%[7.34 µM]
COC(=O)CC1=NN(c2ccccc2)C(=O)/C1=C\c1ccc(OC)cc1	-7%	-18%
Cc1ccc(C(=O)Nc2nc3ccc(S(C)(=O)=O)cc3s2)cc1C	-7%	-15%
CCN1CCN(C(=O)Nc2cc(Cl)ccc2OC)CC1	i	-2%
O=C(CSc1ccc(Cl)cc1)Nc1ncccn1	i	-14%
O=C(c1ccc(Cl)c(Cl)c1)N1CCOCC1	.	-14%

Additional results.
SMILES	Vaccinia mCherry	VACV Venus inh
Cc1ccc(NC(=O)c2sc3nc(-c4ccc(F)cc4)ccc3c2N)cc1F	-13%	-2%
CC(=O)c1cc2c(cc1NC(=O)CSc1nnc(C3CC3)n1C)OCO2	i	-3%
Cc1ccc(-n2nc(-c3cccnc3)cc2C(=O)N2CCOCC2)c(C)c1	i	-7%
Cc1cc(C)cc(OC(=O)CS(=O)c2ccc(C(F)(F)F)cc2[N+](=O)[O-])c1 (stereo not given)	i	-11%
C=COC(=O)c1sc2nc(C)cc(C)c2c1N	-8%	-4%
COc1ccc(C2CC(c3ccccc3)Nc3ncnn32)cc1 (stereo not given)	-9%	-7%
Cc1ccc(C(=O)N/C(=C\c2ccccc2)C(=O)NCCN2CCOCC2)cc1	-11%	-4%
COc1ccc(NC(=O)N2CCN(c3ccc([N+](=O)[O-])cc3)CC2)cc1OC	i	-8%
CCOC(=O)C1CCN(S(=O)(=O)c2ccc(-c3nc4ccccc4s3)s2)CC1	.	-5%
CN(C)c1ccc(CNC(=O)c2cc(S(=O)(=O)N3CCCC3)cn2C)cc1	-20%	-7%
Cc1ccc(-c2nc(-c3cccnc3)no2)c(C)c1	i	-14%
COc1ccc2nc(N=NC3=C(O)CC(C)(C)CC3=O)sc2c1	?	-7%
Cc1cc(=O)oc2ccc(OCC(=O)N3CCc4ccccc43)cc12	i	-4%
CCOc1ccc(NC(=S)Nc2cc(C)[nH]n2)cc1	-10%	-5%
COc1cc(/C=C/C(=O)c2ccc(C)cc2)ccc1OCC#N	?	?
COc1ccc(NC(=S)N(CCc2ccc(OC)c(OC)c2)Cc2ccccn2)cc1	-2%	1%
CCN(CC)C(=O)C(C)OC(=O)COc1ccc(Cl)cc1Cl (stereo not given)	i	-14%
Cc1cc(-c2cccc(Br)c2)c(C#N)c(N)n1	-6%	6%
COc1ccc(CCn2c(C)c(C(C)=O)c3cc(OC(=O)c4ccco4)ccc32)cc1OC	-12%	-16%
N=C1c2ccccc2CN1NC(=O)CC12CC3CC(CC(C3)C1)C2	i	-20%
COc1ccc(Cl)c(NC(=O)Cn2nnc(-c3ccccc3N)n2)c1	-3%	-25%
CCOc1ccc(S(=O)(=O)N2CCN(C(=S)NCc3ccco3)CC2)cc1	i	-28%
CCCCCCCC/C=C\CCCCCCCC(=O)OC[C@H](CO)OC(C)=O	i[3.33 µM]	-7%[3.33 µM]
Nc1cc(C(=O)O)ccc1Nc1ccc(F)c(F)c1	.	-7%
CC(C)c1ccc(S(=O)(=O)N2CCN(C(C)C(=O)N3CCCC3)CC2)cc1 (stereo not given)	-16%	-17%
CC(=O)N1N=C2/C(=C/c3ccccc3)CCCC2C1c1ccccc1 (stereo not given)	-14%	-8%
O=C(Nc1oc2ccc(Cl)cc2c(=O)c1-c1ccc(F)cc1)c1ccco1	-2%	-6%
O=C(c1cccc(COc2ccc(Cl)cc2Cl)c1)N1CCN(c2ccccn2)CC1	i	-10%
O=C1NC[C@H](CCCCN2C[C@H](Cc3ccc(O)cc3)N(CCc3ccc(O)cc3)C(=O)C2=O)N(CCc2ccccc2)C1=O	-2%	1%
Cc1ccc(C(=O)c2nc(C(=O)NCCO)nc3ccccc23)cc1	-7%	4%
O=C(Nc1ccc(F)cc1)c1oc2ccccc2c1NC(=O)C1CCCCC1	-5%	-5%
COc1ccc(N(C(=O)c2snc(C(N)=O)c2N)C(C(=O)NC2CCCC2)c2ccc(F)cc2)c(OC)c1 (stereo not given)	i	5%
Cn1c(NCC(O)c2ccccc2)nc2c1c(=O)n(Cc1ccc(Cl)cc1)c(=O)n2C (stereo not given)	.	?
O=C(NCCN1CCOCC1)c1ccc(CSc2nc3ccncc3n2Cc2ccc(F)cc2)cc1	10%	-8%
Cc1ccc2oc(-c3ccc(NC(=O)c4oc5ccc(Cl)cc5c4C)cc3)nc2c1	-9%	1%
O=C(CC12CC3CC(CC(C3)C1)C2)Nc1nncs1	-15%	-18%
CCOC(=O)c1ccc(-n2c(C)nc3c(cnn3-c3ccccc3C)c2=O)cc1	i	-13%
CCOC(=O)C1=C(COC(=O)/C=C/c2cc(OC)c(OC)c(OC)c2)NC(=O)NC1C (stereo not given)	-7%	-18%
O=C(CN1C(=O)c2ccccc2S1(=O)=O)NC1CCCCC1	i	-9%
CCOc1ccc(-n2c(CC)nc3ccccc3c2=O)cc1	i	-16%
O=C(CNC(=O)c1ccc(Br)o1)Nc1ccncc1	-12%	-12%
CCOc1ccc(-c2nc(C#N)c(N3CCN(C)CC3)o2)cc1	-9%	-18%
CC(C)(C)c1ccc(C(=O)N2CCC(=O)N(C(COCc3ccccc3)Cc3ccccc3)CC2)cc1 (stereo not given)	-24%	?
O=C1CCN(Cc2ccc([N+](=O)[O-])cc2)CCN1[C@H](CO)Cc1ccccc1	-12%&-9%	-21%&-11%
O=C(O)c1ccccc1C(=O)c1ccc(N2CCOCC2)c([N+](=O)[O-])c1	-4%	2%
CC(=O)Nc1ccc(-c2csc(NC(=O)CC(NC(C)=O)c3ccccc3)n2)cc1 (stereo not given)	-6%	-5%
CC(=O)Nc1ccc(NC(=O)CSc2nnc(-c3cccs3)n2C)cc1	7%	-7%
CCN(CC(=O)Nc1ccc(OC)cc1)C(=O)c1ccc2ccccc2c1	-16%	-6%
O=C(NCC(=O)N(Cc1cccs1)C(C(=O)NC1CCCC1)c1ccncc1)c1ccco1 (stereo not given)	-18%	-17%
COc1ccc(OC)c(/C=N/NC(=O)CNC(=O)c2ccc(S(=O)(=O)N3CCOCC3)cc2)c1	-21%	-10%
CCOC(=O)C1Cc2c([nH]c3ccccc23)C(C)N1 (stereo not given)	-13%	-5%
CCOC(=O)C1CCCN(C(=O)C2CCN(c3nnc(C)c4c(C)n(-c5ccccc5)nc34)CC2)C1 (stereo not given)	-11%	-7%
COc1ccc(-c2cc(C)no2)cc1S(=O)(=O)N1CCc2ccccc21	-13%	-7%
CCCCn1nc2cc(C(=O)NCc3ccc(OC(F)(F)F)cc3)ccc2c1OC	-1%	-19%
Cc1ccc(CN2[C@@H](Cc3ccccc3)C(=O)CS2(=O)=O)cc1	?	-9%&5%
O=S(=O)(NCCc1nc2ccccc2[nH]1)c1ccccc1	i	-2%
CS(=O)(=O)N(CC(=O)NCCSc1ccccn1)c1ccc(F)cc1	-19%	-16%
COc1ccc(CNC(=O)CSc2ncn[nH]2)cc1	.	-6%
Cc1nn(Cc2ccccc2Cl)c(C)c1NC(=O)c1ccn(C)n1	i	-8%
COC(=O)Cc1c(C)c2ccc3c(c2oc1=O)CN(Cc1ccccc1Cl)CO3	i	-19%
(continued)
SMILES	Vaccinia mCherry	VACV Venus inh
COc1ccc(CN2CCCC(c3nc(-c4ccncc4)ncc3-c3ccccc3)C2)cc1OC (stereo not given)	0%	15%
Cc1ccc(S(=O)(=O)/C=C2\OCc3ccccc32)cc1	-18%	-4%
CC(=O)c1cccc(NC(=O)COC(=O)c2cccc(N3C(=O)c4ccccc4C3=O)c2)c1	i	-3%
Cc1cc(F)ccc1NS(=O)(=O)c1c(C)nc2scc(C)n2c1=O	-4%&-19%	-18%&-10%
Cc1cc(C)nc(SCc2nnc(SCC(=O)Nc3cc(C(F)(F)F)ccc3Cl)o2)n1	-19%	-6%
CCOC(=O)c1cc(-c2ccccc2)n(CCC(=O)NCCc2ccc(OC)c(OC)c2)c1C	i	-8%
CC1Cc2ccccc2N1C(=O)c1ccc2c(c1)nnn2C (stereo not given)	?	-16%
COc1ccc(Oc2cc(NC(=O)c3nn(C)cc3[N+](=O)[O-])cc([N+](=O)[O-])c2)cc1	?	?
Cc1nnc(SCC(=O)N2CCN(S(=O)(=O)c3ccc(Cl)cc3)CC2)[nH]c1=O	.	-9%
O=C(Cc1ccccc1)NNC(=O)c1ccc(NC(=O)c2ccccc2)cc1	i	-12%
Cc1ccc(CNC(=O)CCCN2C(=O)CCn3nc(-c4cn(C)c5ccccc45)cc32)cc1	-8%	-2%
CCC1CCCCN1c1ccc([N+](=O)[O-])cc1/C=N/NC(=O)Cn1c2ccccc2c(=O)c2ccccc21 (stereo not given)	-16%	-15%
CC(=O)c1ccc(NC(=S)N2CCN(S(=O)(=O)c3ccc(F)cc3)CC2)cc1	-17%	-10%
N#CCCN(C(=O)COC(=O)CCN=C1NS(=O)(=O)c2ccccc21)c1ccc(F)cc1	-10%	-8%
O=C(c1ccco1)N1CCN(C(=O)c2ccc(CS(=O)c3cccc(Cl)c3)o2)CC1 (stereo not given)	-8%[7.34 µM]	5%[7.34 µM]
CCOc1ccc(NC(=O)CN2C(=O)C3(SCC(=O)N3c3ccc(F)cc3)c3ccccc32)cc1 (stereo not given)	-17%	-27%
C#CCOc1ccc(C2C(C(=O)OC)=C(C)NC3=C2C(=O)c2ccccc23)cc1OCC (stereo not given)	-10%	-11%
CCOC(=O)[C@]12CCCC=C1N(Cc1ccco1)C(=O)[C@H](CC(=O)NCc1ccccc1)C2	-10%	-5%
